Compound activity (PubChem BioAssay)
2A firefly – lowers the firefly signal of an FMDV 2A StopGo reporter; HEK cells with a luciferase reporter of 2A StopGo recoding; Potency, µM (series often up to 57.5 µM), inactives show top-dose signal change, negative = less light; 0.23% of 120,000 active; AID 1745856; active = well fitted falling curve with a large enough effect; inconclusive = small, poorly fitted or top-dose-only effect; inactive = no such curve, though single readings can be large or run the other way; also: nearly all actives have a fitted effect of over 60% in size; overnight with compound
2A Renilla – lowers the Renilla signal of an FMDV 2A StopGo reporter | HEK cells with a luciferase reporter of 2A StopGo recoding | Potency, µM (top dose mostly 57.5 µM), without a hit: top-dose signal change, negative = less light | 0.32% of 120,000 active | AID 1745857; active means well fitted falling curve with a large enough effect; inconclusive means small, poorly fitted or top-dose-only effect; inactive means no such curve, though single readings can be large or run the other way; also: nearly all actives have a fitted effect of over 55% in size; overnight with compound
Starred values were filed as active, the others as inactive; ? = inconclusive; [ ] = dose if it differs, or a comment. % is scaled to controls: 0 for no effect and ±100 for the full control effect; potency is read from the fitted curve at half-maximal effect. An unsorted share of the library (roughly 0.55% active in at least one column).

SMILES | 2A firefly | 2A Renilla
Cc1c(C(=O)OCCOc2ccccc2)[nH]c2c1C(=O)CC(c1ccccc1Cl)C2 (stereo not drawn) | 2% | -9%
CCc1ccc(OCCCSc2nc(-c3ccc(C(C)(C)C)cc3)nc3cc(=O)[nH]n23)cc1 | 34%[activator] | -13%
O=C(CCS(=O)(=O)c1cccc2nonc12)Nc1ccc(Br)cc1 | -5% | 21%
CCc1ccccc1NC(=O)CSc1nc2c(oc3ccccc32)c(=O)n1C | 9% | 38%[activator]
CCCCn1c(SCC(=O)NCCCOC)nc2c(sc3ccccc32)c1=O | -7% | -1%
Cc1ccc2scc(N3CCN(c4cccc(C(F)(F)F)c4)CC3)c(=O)c2c1 | 38%[activator] | 8%
Cc1c(C(=O)Nc2c(C)n(C)n(-c3ccccc3)c2=O)oc2ccc(Cl)cc12 | 10% | -2%
CCc1sc(C(=O)Nc2sc(C)c(C)c2C#N)cc1Br | 32%[activator] | 4%
Fc1cccc(CN2CCc3nc(Nc4ccc5c(c4)OCCO5)ncc3C2)c1F | 73%[activator] | 59%[activator]
Cc1nc(SCc2coc(-c3cccc(Cl)c3)n2)n[nH]1 | 0% | 16%
CCc1ccc(-n2c(=O)c3sc4ccccc4c3n(CC(=O)NC3CCCCC3)c2=O)cc1 | 4% | -2%
O=C(/C=C/c1ccc(Cl)cc1)c1ccc(OC(F)F)cc1OC(F)F | 51%[activator] | 41%[activator]
Cc1ccc(-c2nc3ccccn3c2Nc2ccc3c(c2)OCCO3)s1 | 212%[activator] | 8%
CC1CCCN(C(C)C(=O)Nc2ccc(C#N)cc2)C1 (stereo not drawn) | 14% | -3%[1.06 µM]
COc1cc(/C=C2\Oc3cc(OS(=O)(=O)c4ccccc4)ccc3C2=O)cc(OC)c1OC | 16% | 7%
CCOC(=O)c1c(NC(=O)COc2ccc(Br)cc2)sc(C(C)=O)c1C | -16% | 4%
O=C(O)CNS(=O)(=O)c1ccc(OC(F)(F)F)cc1 | 6% | 2%
CCOC(=O)c1c(C)[nH]c(C)c1S(=O)(=O)N1CCC(C(=O)Nc2ccccc2CC)CC1 | -20% | 2%
Cc1ccc2cc(C(=O)NCCN(C(C)C)C(C)C)[nH]c2c1 | 47%[activator] | -7%
Brc1c(CSc2nc3ccccc3o2)nc2ccccn12 | 0% | 2%
Cc1cccc(C(=O)NC(c2cccnc2)c2cc(C)ccc2C)c1 (stereo not drawn) | 7% | 18%
CC(C)(C)C(=O)NCCCC(=O)NCc1ccccc1 | 9% | 13%
CC(c1nc(C2CC2)no1)N1CCC(c2ccnn2CCO)CC1 (stereo not drawn) | 5% | -5%
O=C(NCCS(=O)(=O)N1CCN(c2cccc(Cl)c2)CC1)c1cc(=O)c2ccccc2o1 | -9% | 0%
CN1C(=S)SC(N(O)C=C2C=CC(=O)C=C2)C1(C)C (stereo not drawn) | 37%[activator] | 27%
O=S(=O)(Cc1ccc(F)cc1)Cc1csc(-c2ccccc2)n1 | 17% | 24%
Cc1cc(Br)ccc1NC(=O)CN(C)C(=O)c1nn(-c2ccc(F)cc2)c2c1CCC2 | -9% | -1%
N#Cc1cccc(NC(=O)C2(c3ccc(Cl)cc3)CCC2)c1 | ? | -9%
CCn1cnc2c1c(=O)n(CC(=O)c1cc(C)n(CCOC)c1C)c(=O)n2Cc1ccccc1 | 129%[activator] | 30%
CCC(CC)C(=O)NC1CC(=O)N(c2ccc(OC)c(OC)c2)C1 (stereo not drawn) | -8% | -12%
COc1cccc(NC(=O)CCc2ncc(-c3ccc(C)cc3)o2)c1 | 10% | -7%
O=C(Cc1ccc(N2CCCC2=O)cc1)N1CCN(C(=O)C2CC2)CC1 | -4% | -3%
COc1ccc(CNC(=O)COCc2cc(-c3cccs3)on2)cc1OC | -25% | ?
Cc1ccc(C)c(Cn2c(CCCNC(=O)C3CCCCC3)nc3ccccc32)c1 | 0% | 7%
CN(Cc1ccco1)C(=O)c1cc(-c2cccs2)nc2ccccc12 | 16% | 154%[activator]
O=C(COC(=O)CCNS(=O)(=O)c1ccc(F)c(Cl)c1)Nc1ccc(Cl)cc1Cl | 0% | 0%
CCCc1cc(=O)n2[nH]c(NC(=O)Cc3ccccc3)nc2n1 | 1% | -6%
Cc1ccc(-c2cnc(CCC(=O)Nc3nccs3)o2)cc1C | 28% | 3%
COc1ccc2c(C)c(-c3cccc4ccccc34)c(=O)oc2c1 | ? | ?
COC(=O)c1ccc(COc2ccccc2Br)cc1 | 0% | 10%

Structural class: the entries above containing a CF3 group (2)
SMILES | 2A firefly | 2A Renilla
Cc1ccc2scc(N3CCN(c4cccc(C(F)(F)F)c4)CC3)c(=O)c2c1 | 38%[activator] | 8%
O=C(O)CNS(=O)(=O)c1ccc(OC(F)(F)F)cc1 | 6% | 2%

Next part:
SMILES | 2A firefly | 2A Renilla
Cc1ccc2nc(NC(=O)CCn3c(=O)n(C)c4ccccc43)sc2c1 | 19% | -5%
CCOc1ccc2ncc(C#N)c(Nc3cc(OC)c(OC)c(OC)c3)c2c1 | 28% | 23%
CCc1ccccc1N(C(C)=O)c1nc(CSc2nnc(C3CC3)n2C2CC2)cs1 | -18% | -3%
Cn1c(CSc2ccccc2)nc2c1c(=O)[nH]c(=O)n2C | 20% | 1%
Cc1cc(C)c2c(-n3cccc3)c(C(=O)NCC(C)c3ccccc3)sc2n1 (stereo not drawn) | -6% | 0%
COc1cc(NC(=O)Cn2ccn(Cc3ccccc3OC)c(=O)c2=O)cc(OC)c1 | -10% | 59%[activator]
Cc1ccc(C(C)(C)c2ccc(C(=O)O)cc2)cc1C | -10% | -9%
CCN(CC)S(=O)(=O)c1ccc2oc(C(=O)N(C)Cc3ccccc3)c(C)c2c1 | 7% | 53%[activator]
CN(C)CCNc1oc(-c2ccc(S(=O)(=O)N3CCCCCC3)cc2)nc1C#N | -13% | 63%[activator]
CCOc1ccccc1/C=C/C(=O)c1cccc(O)c1 | 0% | ?
CC(=O)Nc1nonc1-c1nnc(SCC(=O)Nc2ccc(C)c(Cl)c2)n1-c1ccccc1 | -4% | -2%
Cn1cccc1C1CCCCCN1S(=O)(=O)c1ccc(S(=O)(=O)N2CCCC2)cc1 (stereo not drawn) | -5% | 6%
COc1ccc(CNC(=O)CSc2nc(-c3cccs3)nc3ccccc23)cc1 | -3% | -10%
COc1cc(C(=O)Nc2ccc(-n3c(C)nc4ccccc4c3=O)cc2)cc(OC)c1OC | 1% | 24%
CCCCN(CC)CCNC(=O)c1cn(CCOC)c(=O)c2c1c1ccccc1n2C | -7% | 6%
Cc1ccc(C(=O)Nc2ccc3nc(SCC(=O)N4CCCc5ccccc54)sc3c2)cc1 | 21% | 11%
COc1ccc(NC(=O)C(C)n2nc(C)c3c(C)n(-c4ccccc4)nc3c2=O)cc1Cl (stereo not drawn) | -15% | -7%
CCOC(=O)c1ccc2c(c1)N(C(CC)C(=O)Nc1ccccc1OC)C(=O)c1ccccc1S2 (stereo not drawn) | 13% | 81%[activator]
CCn1c(COc2cccc3cccnc23)nnc1SCC(=O)O | 0% | 2%
O=C(O)C(Cc1ccc(O)cc1)NC(=O)C(c1ccccc1)c1ccccc1 (stereo not drawn) | -1% | 4%

Three compounds out of the list, ordered by heavy-atom count, descending:
SMILES | 2A firefly | 2A Renilla
Cc1c(C(=O)Nc2c(C)n(C)n(-c3ccccc3)c2=O)oc2ccc(Cl)cc12 | 10% | -2%
COc1ccc(CNC(=O)COCc2cc(-c3cccs3)on2)cc1OC | -25% | ?
CC(C)(C)C(=O)NCCCC(=O)NCc1ccccc1 | 9% | 13%

The list continues.
SMILES | 2A firefly | 2A Renilla
Cn1nnnc1-c1cccc(NS(=O)(=O)c2ccc(F)cc2F)c1 | 3% | 128%[activator]
CCc1cccc(NC(=O)Cn2c(=O)c(C(F)(F)F)nc3ccccc32)c1 | -20% | -14%
Cc1ccc(C)c(NC(=S)NNC(=O)C(c2ccccc2)c2ccccc2)c1 | 0% | 202%[activator]
O=C(Nc1nnc(S(=O)(=O)N2CCCc3ccccc32)s1)c1ccc(Cl)cc1 | 14% | -1%
COc1ccc(S(=O)(=O)N2CCC(C(=O)Nc3ccccc3Cl)CC2)c2cccnc12 | 2% | -3%
CC(CC(=O)NCc1ccc(Cl)cc1)CC1=NS(=O)(=O)c2ccccc2N1 (stereo not drawn) | -5% | 116%[activator]
COc1ccc2c(c1)c(CC(=O)Nc1cc(C)cc(C)c1)c(C)n2C(=O)c1ccc(Cl)cc1 | -3% | -1%
CCCOc1ccc(C2C(=O)N(C3CCCCCC3)CC(=O)N2CCCOCC)cc1OC (stereo not drawn) | -10% | 5%
O=C(NCCCNC(=O)C1CCCC1)C1CCCC1 | -4% | 6%
CCCCN1C(=O)c2[nH]nc(-c3ccccc3O)c2C1c1cc(Br)c(O)c(OC)c1 (stereo not drawn) | -10% | 56%[activator]
COc1ccc(-c2nc(-c3ccc(Br)cc3)no2)cc1 | 178%[activator] | 13%
COc1ccccc1CN1CCCC(C(=O)N2CCCCC2)C1 (stereo not drawn) | -5% | 1%
CCOc1cc(/C=C2\NC(=O)NC2=O)ccc1OCc1ccc(Br)cc1 | 0% | 6%
Cc1ccc(OC(C)C(=O)Nc2cccc3cccnc23)cc1C (stereo not drawn) | 10% | 8%
O=[N+]([O-])c1ccc(NC(c2ccccc2)c2ccccn2)c2ccncc12 (stereo not drawn) | -8% | -4%
Cc1ccc(Nc2nc(N)c(C(=O)c3c(C)[nH]c4ccccc34)s2)c(C)c1 | 17% | 21%
COc1ccc(CNC(=O)c2ccc3c(c2)nc2n3CCOC2)c(OC)c1 | -10% | 5%
COCCN1C(=O)C(=O)/C(=C(/O)c2ccc3c(c2)OCCO3)C1c1cccc(O)c1 (stereo not drawn) | 0% | -3%
CCOC(=O)c1ccc(NC(=O)c2c(C)oc3nc(C)nc(N4CCCC4)c23)cc1 | -14% | -9%
CNC(=O)NC(=O)C(C)N(C)Cc1ccccc1 (stereo not drawn) | -9% | -2%
Cc1ccccc1NC(=O)c1sc2nc3n(c(=O)c2c1C)N=C(c1ccccc1)CS3 | 8% | -14%
Cc1nn(CCC(=O)Nc2ccc(F)cc2)c(C)c1S(=O)(=O)N1CCC(C)CC1 | -12% | 3%
COc1ccc(S(=O)(=O)N2CCC(c3nnc(-c4ccccc4C)o3)CC2)c(OC)c1 | 5% | -3%
COc1ccc(-c2noc(N3CCC(C(=O)N4CCN(c5cccc(OC)c5)CC4)CC3)n2)cc1 | ? | -6%
CC(C)(C)c1cc(NC(=O)Nc2cc(Cl)cc(Cl)c2)no1 | ? | ?
Cc1ccc(NC(=O)c2sc(-n3nc(C)c(Cl)c3C)nc2C)c(C)c1 | -4% | -11%
COc1cc(CC(=O)OCc2c(Cl)cccc2Cl)cc(OC)c1OC | 42%[activator] | 70%[activator]
CN1CC2(C)CNCC(C)(C1)C2O (stereo not drawn) | -7% | -7%
Cc1ccc2nc(C)c(C(=O)NC3CCN(Cc4ccccc4)CC3)cc2c1 | -6% | -8%
N=C(N)N | -14%[11.5 µM] | -6%
CCc1ccc(C2C(C(=O)Nc3ccccc3)=C(C)Nc3c(C(=O)Nc4ccc(C)cc4)cnn32)cc1 (stereo not drawn) | -22% | -17%
COc1ccc(CNC(=O)CN2C(=O)COc3ccccc32)c(OC)c1 | 42%[activator] | 1%
Cc1cc(SCC(=O)Nc2ccc(F)cc2F)nc(=O)[nH]1 | 4% | -11%
Cc1cc(C(=O)NC2CCN(C(=O)C3CC3)CC2)c2ccc(F)cc2n1 | -4% | -9%
COC(=O)c1ccccc1NC(=O)c1ccc2c(=O)n3c(nc2c1)CCCCC3 | 18% | 7%
C/C(=C/C(=O)C(F)(F)F)N1CCN(C/C=C/c2ccccc2)CC1 | -2% | -15%
Cc1cccc(C2CC(=O)Nc3cc4c(cc32)OCO4)c1 (stereo not drawn) | 10% | 6%
CCOc1ccc(N(C)C(=O)C2CCN(S(=O)(=O)c3c(C)noc3/C=C/c3ccc(C)cc3)CC2)cc1 | -17% | -8%
Cc1ccc(CN2c3ccccc3-c3nc(SCC(=O)NCc4ccccc4)ncc3S2(=O)=O)cc1 | -17% | -26%
CCN(CC)CCn1c(=N)n(CCOc2ccccc2Cl)c2ccccc21 | ? | ?

In the list so far, eleven have two or more sulfur atoms:
SMILES | 2A firefly | 2A Renilla
CCCCn1c(SCC(=O)NCCCOC)nc2c(sc3ccccc32)c1=O | -7% | -1%
CCc1sc(C(=O)Nc2sc(C)c(C)c2C#N)cc1Br | 32%[activator] | 4%
CN1C(=S)SC(N(O)C=C2C=CC(=O)C=C2)C1(C)C (stereo not drawn) | 37%[activator] | 27%
O=S(=O)(Cc1ccc(F)cc1)Cc1csc(-c2ccccc2)n1 | 17% | 24%
CCc1ccccc1N(C(C)=O)c1nc(CSc2nnc(C3CC3)n2C2CC2)cs1 | -18% | -3%
Cn1cccc1C1CCCCCN1S(=O)(=O)c1ccc(S(=O)(=O)N2CCCC2)cc1 (stereo not drawn) | -5% | 6%
COc1ccc(CNC(=O)CSc2nc(-c3cccs3)nc3ccccc23)cc1 | -3% | -10%
Cc1ccc(C(=O)Nc2ccc3nc(SCC(=O)N4CCCc5ccccc54)sc3c2)cc1 | 21% | 11%
O=C(Nc1nnc(S(=O)(=O)N2CCCc3ccccc32)s1)c1ccc(Cl)cc1 | 14% | -1%
Cc1ccccc1NC(=O)c1sc2nc3n(c(=O)c2c1C)N=C(c1ccccc1)CS3 | 8% | -14%
Cc1ccc(CN2c3ccccc3-c3nc(SCC(=O)NCc4ccccc4)ncc3S2(=O)=O)cc1 | -17% | -26%
